Source: PubChem BioAssay
TSHR ag: TSH receptor (human) agonism | AID 926 | hit rate 0.48% among 73,000 | Potency, µM (highest dose often 57.1 µM), for inactives: at the top dose activation, actives largely listed as activators | HEK293-CNG-TSHR cells (CNG channel as cAMP sensor), membrane potential dye, cAMP; active = well fitted activation curve of enough size with the parental cells flat; inconclusive = any curve in the parental cells; inactive = parental cells flat and receptor cells flat or falling; further: potency means the concentration at half of the fitted maximal effect; % of control where 0% means no effect; weak receptor curves with flat parental cells got no call and are not listed
Target sequence (P16473 whole entry, looked up): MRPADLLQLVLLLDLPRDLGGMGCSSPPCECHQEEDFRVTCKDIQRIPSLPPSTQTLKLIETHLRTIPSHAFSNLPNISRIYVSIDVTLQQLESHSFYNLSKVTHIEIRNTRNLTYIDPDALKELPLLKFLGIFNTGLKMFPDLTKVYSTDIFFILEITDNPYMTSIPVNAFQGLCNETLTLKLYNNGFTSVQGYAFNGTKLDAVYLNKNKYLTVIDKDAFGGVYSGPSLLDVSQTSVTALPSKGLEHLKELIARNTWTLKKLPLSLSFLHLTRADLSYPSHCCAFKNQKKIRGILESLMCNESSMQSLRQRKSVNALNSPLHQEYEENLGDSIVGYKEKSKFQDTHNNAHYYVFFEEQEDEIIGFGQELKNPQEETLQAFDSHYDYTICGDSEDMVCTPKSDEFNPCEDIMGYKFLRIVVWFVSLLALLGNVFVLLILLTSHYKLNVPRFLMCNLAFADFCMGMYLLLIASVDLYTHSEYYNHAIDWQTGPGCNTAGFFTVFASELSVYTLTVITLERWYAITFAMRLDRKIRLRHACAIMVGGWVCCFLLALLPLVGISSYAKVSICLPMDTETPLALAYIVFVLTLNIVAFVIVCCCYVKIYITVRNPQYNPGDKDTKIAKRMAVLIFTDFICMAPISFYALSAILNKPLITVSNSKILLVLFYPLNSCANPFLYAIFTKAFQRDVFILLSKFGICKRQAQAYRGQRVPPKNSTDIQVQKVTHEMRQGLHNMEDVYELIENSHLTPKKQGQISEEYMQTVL
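HEK 293 cells stably expressing TSHR and a cAMP-gated CNG channel; parental CNG-only cells as counterscreen. Cells preloaded 60 min with membrane potential dye plus 100 uM RO 20-1724, then compound 30 min; fluorescence read at 590 nm.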
A488 fluor: A488 region autofluorescence. compound autofluorescence, A488 spectral region, dye equivalency; stronger effect = higher value. max dye equivalency, M. hit rate 0.1% among 59,000. AID 591; active = above 10 nM dye equivalent; inconclusive = 1 to 10 nM; inactive = 1 nM or less; about half of its hits are not listed in these tables;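 further: highest value over a series up to 38 µM; compound alone in buffer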
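Read-out: relative fluorescence at 480/540 nm, expressed as Alexa 488 dye-equivalent concentration from a six-point A488 standard included per plate. Conditions: 100 mM Tris, pH 8.0; 15 min incubation, room temperature.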
AID923: qHTS Assay for Allosteric/Competitive Inhibitors of Caspase-1: Spectroscopic Profiling in AFC Spectral Region. Potency, µM (titrated, usually from 57.5 µM), without a hit: top-dose fluorescence increase, usual class: activators. AID 923, 2007. hit rate 1.1% among 75,000. compound fluorescence, AFC spectral region (405/520 nm); almost no hit is shown here; active means well fitted activation curve with a large enough effect; inconclusive means small, poorly fitted or top-dose-only effect;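 further: potency means the concentration at half of the fitted maximal effect; 0% is about no effect; scaled to a free AFC standard on each plate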
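Baseline compound fluorescence (AFC region, 405 nm ex/520 nm em) taken from the intercept of kinetic reads with 50 nM caspase-1 and 5 uM Ac-WEHD-AFC; normalized to an on-plate AFC standard curve; compounds titrated up to 57 uM.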
A647 autofl: A647 region autofluorescence | 59,000 tested, under 10 active | max dye-equivalent concentration, M | Compound fluorescence, A647 channel (570/671 nm), Tris buffer | AID 592; active means above 1 µM dye equivalent; inconclusive means 0.1 to 1 µM; inactive means 0.1 µM or less;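 further: values scaled relative to a standard on each plate; highest value over a series up to 38 µM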
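Spectral profiling of library compounds in pH 8.0 Tris: 15 min room-temperature incubation, single ex/em pair (570/671 nm), response normalized to Alexa 647 equivalents.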
Resorufin autofl: resorufin region autofluorescence; Compound fluorescence, resorufin region 547/598 nm, buffer; stronger effect = higher value; max dye-equivalent concentration, M; hit rate 0.04% among 59,000; active = above 10 nM dye equivalent; inconclusive = 1 to 10 nM; inactive = 1 nM or less; a few of its hits are not listed in these tables; further: highest value over a series up to 38 µM
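Read-out: intrinsic compound fluorescence at ex 547/em 598 nm after 15 min at RT in pH 8.0 Tris (100 mM). Values expressed as resorufin-equivalent concentration from per-plate standard series.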
* = called active by the depositor; i = inactive; ? = inconclusive; / = not tested or not shown; [ ] = remark or other dose. Only part of the results is shown; count on the stated rates, not on these rows.

The line under a structure holds: AID923	TSHR ag	Resorufin autofl	A647 autofl	A488 fluor
> CC(=O)NCCC(=O)Nc1ccc(C)c(F)c1
→ 0.7%	-4%	i	1.9e-09	i
> CCCc1ccc(OCCNC(=O)CC)cc1
→ -3.7%	7%	i	9.4e-09	i
> O=C(O)c1cccc(CSc2ncccn2)c1
→ 1.7%	11%	i	1.6e-08	i
> COc1ccc(N2CCN(CC(=O)Nc3c(C)cc(C)cc3C)CC2)cc1
→ 2.3%	?	i	4.9e-08	i
> CC12CCC(C(=O)NCc3ccc4c(c3)OCO4)(OC1=O)C2(C)C (stereo not given)
→ -1.2%	5%	i	6.8e-09	i
> Cc1cc(C)c2cc(C#N)c(SCC(=O)NCc3ccco3)nc2c1
→ 0.7%	19%	i	5.1e-08	i
> Cc1cc(NC(=O)c2noc3c2CCc2ccccc2-3)no1
→ 0.7%	4%	/	/	/
> N=C(N)c1ccc(N2CCN(C3CCN(CC(=O)O)CC3)CC2)cc1
→ 0.9%	-1%	/	/	/
> N#C/C(C(=O)NCc1ccco1)=C1/SC(Cc2ccc(F)cc2)C(=O)N1c1ccccc1 (stereo not given)
→ /	/	i	1e-09	i
> Cc1ccc2c(c1)nnn2C1CCN(CC(=O)N2CCN(c3ccc(F)cc3)CC2)CC1
→ 0.6%	9%	i	1.9e-08	i
> COc1ncc2nc(-c3ccc(Cl)cc3)c(=O)n(C)c2n1
→ 17%	0%	i	1e-09	i
> CN1C(=O)N(c2cccc3ccccc23)C(n2cncn2)C1(C)C (stereo not given)
→ -2.7%	1%	i	1e-09	i
> O=C(Nc1ccc(Oc2ccccc2)cc1)C1CCCN(c2ncccn2)C1 (stereo not given)
→ -0.1%	?	i	1e-09	i
> CCn1c(/N=C/c2c[nH]c3ccccc23)nc2ccccc21
→ 2.0%	12%	i	1.7e-08	i
> CN(CCc1ccccn1)S(=O)(=O)c1ccc2c3c(cccc13)C(=O)N2
→ 25µM*	6%	i	1e-09	i
> O=C(Nc1ccc(O)cc1)C1CCCN1S(=O)(=O)c1ccc(F)cc1 (stereo not given)
→ -0.1%	-17%	/	/	/
> O=C(OCc1cc2ccccc2[nH]c1=O)c1cccnc1
→ 0.1%	?	i	2.1e-09	i
> Cc1ccsc1C(=O)OCC(=O)c1cc(C)n(CC2CCCO2)c1C (stereo not given)
→ 1.6%	?	i	1e-09	i
> CC1=C(C(N)=O)C(c2ccc(Cl)cc2Cl)n2ncnc2N1 (stereo not given)
→ 5.2%	-1%	i	9e-09	i
> CCN(CC)CCNC(=O)C(C(=O)c1ccccc1)n1ccccc1=O (stereo not given)
→ -2.9%	?	i	1e-09	i
> Cc1nccn1CCc1n[nH]c(=S)n1Cc1ccccc1
→ 1.3%	-2%[11.4 µM]	i	1e-09	i
> Cc1occc1-c1nnc(SCC(=O)NCC2CCCO2)n1C (stereo not given)
→ 1.2%	-1%	i	7.7e-09	i
> Cc1cccc(NCc2ccccc2O)n1
→ -1.9%	-7%	i	3e-09	i
> Cc1sc(NC(=O)c2ccccc2)c(C(=O)N2CCN(C)CC2)c1C
→ 1.6%	-2%	i	1e-09	i
> CCCCn1c(=S)[nH]c2c(oc3ccc(Cl)cc32)c1=O
→ -0.6%	?	i	1.7e-08	i
> O=C(COC(=O)c1cccs1)NCc1ccc2c(c1)OCO2
→ -1.1%	5%	i	1e-09	i
> N#CCCn1c(=O)c(-c2ccccc2)nc2cnc(N3CCNCC3)nc21
→ 10µM*	5%	i	4.5e-09	i
> CCOC(=O)Cn1c(C)nc2c(C(=O)OCC)sc(C)c2c1=O
→ -0.4%	6%	/	/	/
> COc1cccc(OC)c1C(=O)N1CCN(Cc2ccc3c(c2)OCO3)CC1
→ 0.0%	0%	i	1.8e-09	i
> O=C(O)c1cc(-c2ccncc2)nc2ccc(F)cc12
→ 1.1%	1%	i	5.1e-08	i

In the list so far, 4 contain a thiophene ring, fused or not:
The line under a structure holds: AID923	TSHR ag	Resorufin autofl	A647 autofl	A488 fluor
> Cc1ccsc1C(=O)OCC(=O)c1cc(C)n(CC2CCCO2)c1C (stereo not given)
→ 1.6%	?	i	1e-09	i
> Cc1sc(NC(=O)c2ccccc2)c(C(=O)N2CCN(C)CC2)c1C
→ 1.6%	-2%	i	1e-09	i
> O=C(COC(=O)c1cccs1)NCc1ccc2c(c1)OCO2
→ -1.1%	5%	i	1e-09	i
> CCOC(=O)Cn1c(C)nc2c(C(=O)OCC)sc(C)c2c1=O
→ -0.4%	6%	/	/	/

More compounds follow.
The line under a structure holds: AID923	TSHR ag	Resorufin autofl	A647 autofl	A488 fluor
> CCOc1ccc(S(=O)(=O)Nc2cccnc2)cc1
→ -3.0%	2%	i	1.1e-08	i
> c1ccc2c(c1)CCN(c1nc3ccccc3n3cnnc13)C2
→ 16%	14%	/	/	/
> CCCCCCc1ccc(-c2ccc(C#N)cc2)cc1
→ 4.9%	?	/	/	/
> CCOC(=O)C(CC)n1cnc2c(nnn2-c2ccc(OC)cc2)c1=O (stereo not given)
→ 0.0%	3%	i	4.9e-09	i
> COc1cc(Br)c(S(=O)(=O)Nc2c(C)n(C)n(-c3ccccc3)c2=O)cc1OC
→ -1.2%	12%	i	1.1e-09	i
> O=C(c1ccc2ccccc2c1)N1CCN(c2ccc(O)cc2)CC1
→ -0.6%	0%	i	1e-09	i
> O=C(O)CSc1ncccc1[N+](=O)[O-]
→ 1.7%[11.5 µM]	3%[11.4 µM]	i	1.1e-08	i
> Nc1ccccc1OCCOCCOc1ccccc1N
→ 0.5%	2%	i	8.9e-09	i
> CCOc1cc(NC(=O)c2ccco2)c(OCC)cc1NC(=O)c1cc(OC)c(OC)c(OC)c1
→ 8.6%	?	i	3.8e-09	i
> N=c1c2c3c(sc2ncn1CCCN1CCOCC1)CCCCC3
→ -0.6%	0%	i	5.5e-09	i
> CCOC(=O)C1Cn2c(nc3c(c2=O)C(C)(C)Cc2ccccc2-3)S1 (stereo not given)
→ -0.1%	14%	/	/	/
> CC(Oc1ccccc1F)C(=O)NCCN1CCCCC1 (stereo not given)
→ 0.2%	0%	/	/	/
> COC(=O)C1(Cc2ccccc2)C=C2C(=C(C)C(=O)C2C)CN1 (stereo not given)
→ 5.7%	8%	/	/	/
> CN(C)CCCN1C(=O)CSC1c1ccccc1 (stereo not given)
→ -1.5%	-1%	/	/	/
> COCC(=O)N1CCC2(CC1)CCN(C(=O)Nc1ccc(OC)cc1)CC2
→ 1.3%	-1%	i	1e-09	i
> CCOC(=O)C1=C(C)OC(N)=C(C#N)C1c1ccc(OC)c(C)c1OC (stereo not given)
→ 1.2%	7%	/	/	/
> CCOC(=O)Cc1nnc(NC(=O)c2ccco2)s1
→ 6.4%	8%	i	1.7e-08	i
> Cc1cnn(-c2cc(Oc3ccccc3)ncn2)c1
→ 0.2%	1%	i	3.4e-08	i
> CCCCNC(=O)C(C#N)c1nc2ccccc2nc1N1CCN(Cc2ccc3c(c2)OCO3)CC1 (stereo not given)
→ /	/	i	1e-09	i
> O=C(c1ccco1)N1CCN(CC(=O)N(C2CCCCC2)C2CCS(=O)(=O)C2)CC1 (stereo not given)
→ -1.4%	0%	i	1e-09	i
> O=C(CN1CCN(c2ncccn2)CC1)N1CCN(C(c2ccccc2)c2ccccc2)CC1
→ 0.4%	2%	i	3e-08	i
> Cc1cc(C)nc(NC2=NCC(=O)N2c2cc(Cl)cc(Cl)c2)n1
→ -0.2%	-9%	i	1e-09	i
> CN1CCc2c(sc3c2c(=O)n(-c2ccccc2)c2nncn32)C1
→ 12%	?	i	1e-08	i
> COc1nc(Nc2cccc(C)c2)nc(N2CCCCC2)n1
→ -0.8%	?	i	1.8e-08	i
> CCCNC(=O)c1ccccc1NS(=O)(=O)c1ccc2c(c1)OCCO2
→ -0.3%	3%	i	1e-09	i
> CCN(Cc1cc2ccccc2[nH]c1=O)C(=O)c1cccnc1
→ 1.5%	34%	i	1e-09	i
> CCCC(=O)Nc1cc(-c2nn(C)c(=O)c3ccccc23)ccc1N1CCCCC1
→ -0.1%	/	i	1e-09	i
> c1ccc(CC2CCN(c3nc4ccccc4n4nnnc34)CC2)cc1
→ 3.5%	9%	i	3.3e-08	i
> CN1CCN(c2ccncc2S(=O)(=O)N2CCN(C)CC2)CC1
→ 3.7%[11.5 µM]	5%[11.4 µM]	i	3.4e-08	i
> CCn1cc(Br)c(C(=O)NC(C)c2ccccc2)n1 (stereo not given)
→ -1.5%	7%	i	5.9e-09	i
> O=C(O)c1cccc(S(=O)(=O)Nc2ccccc2Cl)c1
→ -0.1%	/	i	3.3e-08	i
> O=C(O)c1ccnc(C(=O)O)c1
→ /	/	i	2.6e-08	i
> COc1ccccc1C(=O)N1CCN(Cc2ccc3c(c2)OCO3)CC1
→ /	/	i	4.3e-09	i
> O=C(COc1ccc(S(=O)(=O)N2CCCC2)cc1Cl)NCc1ccc2c(c1)OCO2
→ 1.3%	-2%	i	2.2e-08	i
> CC(C)NC(=O)Nc1cccs1
→ 1.3%	2%	/	/	/
> COc1ccc(Cn2c(=O)n(Cc3ccco3)c(=N)c3c4c(sc32)COC(C)(C)C4)cc1
→ -0.1%	24%	i	1.1e-08	i
> Cc1ccc(-n2c(=O)cc(N3CCC(C)CC3)[nH]c2=O)cc1
→ -0.3%	3%	i	6e-09	i
> CCC(C)NC(=O)c1cn(CC)c2ccc(S(=O)(=O)N(C)C)cc2c1=O (stereo not given)
→ -1.6%	1%	/	/	/
> Cc1cc(=O)[nH]c(SCC2(O)C3CC4CC(C3)CC2C4)n1 (stereo not given)
→ -1.5%	12%	i	1.6e-08	i
> CC12CN3CC(=O)N4CC5(C)CN(CC(C)(C4)C5=O)C(=O)CN(C1)CC(C)(C3)C2=O
→ /	/	i	3.3e-09	i
> COC(=O)C1=C(C)NC(=O)CC1c1cccc(Cl)c1Cl (stereo not given)
→ -2.5%	?	/	/	/
> CN1CCN(C(=O)c2c(NC(=O)c3ccco3)sc3c2CCC(C(C)(C)C)C3)CC1 (stereo not given)
→ -2.4%	3%	/	/	/
> CC(=O)OCC1OC(C#CCCc2ccccc2)C=CC1OC(C)=O (stereo not given)
→ -0.3%[11.5 µM]	6%[11.4 µM]	/	/	/
> Cc1c(C(=O)Nc2ccc3oc(-c4cccnc4)nc3c2)oc2ccccc12
→ 0.0%	?	i	3.7e-08	i
> CC(C)=CCC/C(C)=C/C=C/C1=CC2(C)CC1(C)C(/C=C(\C)CCC=C(C)C)CC2=O (stereo not given)
→ -0.2%[11.5 µM]	4%[11.4 µM]	/	/	/
> COc1ccc(Cl)cc1NC(=O)CSc1nc(N2CCCCC2)nc(N2CCCCC2)n1
→ -1.9%	14%	i	2.2e-08	i
> CCCCCn1c(NCc2ccco2)nc2ccccc21
→ 1.9%	35%	/	/	/
> COc1ccc2nc(CC(C)(C)CC(=O)O)c[n+]([O-])c2c1
→ 13%	-1%	i	7.1e-09	i
> C/C(=N/O)[C@@H]1C[C@H](CC(=O)O)C1(C)C
→ -0.3%[11.5 µM]	3%[11.4 µM]	i	2.5e-08	i
> CN(Cc1cccs1)C(=O)CCc1ccc(S(=O)(=O)N2CCOCC2)cc1
→ 0.1%	-2%	i	1e-09	i
> CCN(CC)C(=O)CSc1nc2ccccc2c(=O)[nH]1
→ -0.9%	17%	i	1.9e-08	i
> NCCCCCCN
→ 3.5%	-11%	/	/	/
> CCCCCSc1nnc2c(n1)OC(c1cccn1C)N(C(C)=O)c1ccccc1-2 (stereo not given)
→ -0.1%	10%	i	2.8e-08	i
> CCN(Cc1ccccc1)C(=O)CCCOc1ccccc1
→ -2.1%	?	/	/	/
> CN(C)c1ccc(-c2nc(N(C)C)c3ccccc3n2)cc1
→ -1.9%	/	i	1.5e-08	i
> O=C(NCc1ccco1)c1cnccn1
→ 2.4%	13%	/	/	/
